A488 autofl: qHTS Assay for Spectroscopic Profiling in A488 Spectral Region; compound autofluorescence, A488 spectral region, dye equivalency; active compounds read high; max dye equivalency, M; 0.1% of 59,000 active; AID 591, 2007; active = above 10 nM dye equivalent; inconclusive = 1 to 10 nM; inactive = 1 nM or less; about half of its hits are not listed in these tables;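 further: highest value over a series up to 38 µM; compound alone in buffer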
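Compound autofluorescence was read in 100 mM Tris pH 8.0 after 15 min at room temperature, ex 480 nm/em 540 nm. Intensities were converted to A488 dye-equivalent concentration using an on-plate six-point A488 standard curve.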
A647 autofl: qHTS Assay for Spectroscopic Profiling in A647 Spectral Region; Compound fluorescence, A647 channel (570/671 nm), Tris buffer; max dye-equivalent concentration, M; 59,000 tested, under 10 active; AID 592, 2007; active means above 1 µM dye equivalent; inconclusive means 0.1 to 1 µM; inactive means 0.1 µM or less;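 further: values scaled relative to a standard on each plate; highest value over a series up to 38 µM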
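Compounds pinned into 100 mM Tris pH 8.0, 15 min at room temperature, then read with 570 nm excitation/671 nm emission filters. Fluorescence normalized to an on-plate six-point Alexa 647 standard curve, giving dye-equivalent concentration per compound concentration.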
AID923: qHTS Assay for Allosteric/Competitive Inhibitors of Caspase-1: Spectroscopic Profiling in AFC Spectral Region; AID 923, 2007; 1.1% of 75,000 active; Potency, µM (titrated, usually from 57.5 µM), for the others: at the highest dose fluorescence increase, most hits filed as activators; compound fluorescence, AFC spectral region (405/520 nm); almost no hit is shown here; active means well fitted activation curve with a large enough effect; inconclusive means small, poorly fitted or top-dose-only effect;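 further: potency means the concentration at half of the fitted maximal effect; 0% is about no effect; scaled to a free AFC standard on each plate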
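Titrations up to 57 uM read every 20 sec for 3 min (405/520 nm) with 50 nM caspase 1 and 5 uM Ac-WEHD-AFC, pH 7.5 HEPES buffer. Fluorescence-vs-time intercept gave baseline, scaled against on-plate AFC standard.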
Resorufin autofl: qHTS Assay for Spectroscopic Profiling in Resorufin Spectral Region; Compound fluorescence, resorufin region 547/598 nm, buffer; active compounds read high; AID 588, 2007; max dye-equivalent concentration, M; 0.04% of 59,000 active; active = above 10 nM dye equivalent; inconclusive = 1 to 10 nM; inactive = 1 nM or less; a few of its hits are not listed in these tables; further: highest value over a series up to 38 µM
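Compounds in 100 mM Tris buffer, pH 8.0, incubated 15 min at room temperature, then read with 547 nm excitation and 598 nm emission filters. Fluorescence was converted to dye-equivalent concentration using an on-plate six-point resorufin standard curve.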
TSHR agonist: qHTS Assay for Agonists of the Thyroid Stimulating Hormone Receptor. 0.48% of 73,000 active. Thyrotropin receptor (Homo sapiens), P16473. HEK293-CNG-TSHR cells (CNG channel as cAMP sensor), membrane potential dye, cAMP. Potency, µM (top dose mostly 57.1 µM), for inactives: at the top dose activation, usual class: activators; active = well fitted activation curve of enough size with the parental cells flat; inconclusive = any curve in the parental cells; inactive = parental cells flat and receptor cells flat or falling; further: potency means the concentration at half of the fitted maximal effect; % of control where 0% means no effect; weak receptor curves with flat parental cells got no call and are not listed
Target sequence (P16473 whole entry, looked up): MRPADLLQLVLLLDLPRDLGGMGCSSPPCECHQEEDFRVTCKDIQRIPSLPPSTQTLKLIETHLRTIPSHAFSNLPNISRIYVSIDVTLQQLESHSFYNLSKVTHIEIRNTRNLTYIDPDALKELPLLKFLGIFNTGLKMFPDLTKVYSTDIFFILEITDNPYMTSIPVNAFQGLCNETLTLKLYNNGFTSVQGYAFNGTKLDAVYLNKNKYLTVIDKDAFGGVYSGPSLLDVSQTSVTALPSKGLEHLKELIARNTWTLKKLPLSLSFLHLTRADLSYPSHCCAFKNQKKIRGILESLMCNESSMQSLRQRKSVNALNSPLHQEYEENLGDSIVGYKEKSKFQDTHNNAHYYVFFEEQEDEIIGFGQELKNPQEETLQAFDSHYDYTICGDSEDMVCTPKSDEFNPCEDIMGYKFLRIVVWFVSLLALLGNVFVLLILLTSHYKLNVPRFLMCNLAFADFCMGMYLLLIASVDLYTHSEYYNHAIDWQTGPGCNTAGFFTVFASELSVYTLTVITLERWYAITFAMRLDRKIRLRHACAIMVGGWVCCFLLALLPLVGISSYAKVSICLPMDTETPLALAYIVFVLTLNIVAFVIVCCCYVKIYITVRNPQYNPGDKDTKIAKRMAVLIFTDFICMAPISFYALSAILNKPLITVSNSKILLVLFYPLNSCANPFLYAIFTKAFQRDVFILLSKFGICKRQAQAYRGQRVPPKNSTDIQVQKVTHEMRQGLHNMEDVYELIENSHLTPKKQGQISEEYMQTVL
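HEK 293 cells stably expressing TSHR and a cAMP-gated CNG channel; parental CNG-only cells as counterscreen. Cells preloaded 60 min with membrane potential dye plus 100 uM RO 20-1724, then compound 30 min; fluorescence read at 590 nm.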
Starred values were filed as active, the others as inactive; i = inactive; ? = inconclusive; . = not tested or not shown; [ ] = remark or other dose. An excerpt, so the mix of outcomes need not match the whole.

SMILES	A488 autofl	A647 autofl	AID923	Resorufin autofl	TSHR agonist
Cc1nnc(NC(=O)CSc2nc3c(c(=O)n2C)SC(C)C3)s1 (centres undefined)	.	.	-3.2%	.	-4%
CCOC(=O)N1CCC(NC(=O)CS(=O)(=O)Cc2nc(-c3ccc(C)cc3)oc2C)CC1	.	.	1.8%	.	0%
COc1cccc(C2/C(=C(\O)c3ccc(OC)c(OC)c3)C(=O)C(=O)N2c2cc(C)on2)c1 (centres undefined)	i	3.1e-08	.	i	.
CSc1nsc(SCC(=O)Nc2ccc3c(c2)OCCO3)n1	i	2e-08	-0.8%	i	10%
C=CCNc1nc(NCCO)nc(N2CCCC2)n1	i	4.2e-09	0.4%	i	-16%
N#Cc1c(N2CCOCC2)nc(N2CCCCC2)c2c1CCN(C1CCCCC1)C2	i	2.1e-08	.	i	.
CCC(=O)NCCN1CCN(C(=O)CC)CC1	i	3.8e-09	0.6%	i	-3%
CCOc1ccc(NS(=O)(=O)c2ccc(C)c(C(=O)O)c2)cc1	.	.	-0.3%	.	6%
CCCc1c(O)nc(SCc2ccccc2)[nH]c1=O	i	5.9e-09	1.3%	i	19%
Cc1cccc(NC(=O)CSC(N)=O)c1C	.	.	-0.4%	.	-19%
COc1ccc(Cl)cc1CN1CCN(c2nc(C)cc(C)c2C#N)CC1	i	7e-09	5.3%	i	?
CCN1C(=O)C2C(c3cccc(F)c3)NC(C)(C(=O)OC)C2C1=O (centres undefined)	i	1.2e-09	1.4%	i	13%
O=C(COc1cccc2cccnc12)Nc1nccs1	i	2.6e-09	-3.0%	i	0%
CC(=O)N1CCN=C1SCc1ccc(C)cc1	.	.	-0.6%	.	-1%
CCC(=O)N1CC2(C)CN(C(=O)CC)CC(C)(C1)C2	i	2.4e-08	0.0%	i	-6%
Cn1c(=O)[nH]c(=O)c2c1nc(N1CCCCC1)n2CC(O)CN1CCCCC1 (centres undefined)	i	1e-09	0.0%	i	-8%
Cc1ccccc1-c1nc(Cc2ccc(Cl)cc2)no1	i	1.3e-08	0.0%	i	-7%
CCN(CC)S(=O)(=O)N1CCC(C(=O)NC(C)CCc2ccccc2)CC1 (centres undefined)	i	1e-09	-0.4%	i	?
O=C(CCc1c[nH]c2ccccc12)NCC1CCCO1 (centres undefined)	i	4.4e-09	-0.6%	i	0%
Cc1ccc(C2CC(c3cccc(C)c3)n3nc(N)nc3N2)cc1 (centres undefined)	.	.	-0.2%	.	20%
CC1(C)CC2CC(C)(CN2c2ncnc3ccccc23)C1 (centres undefined)	i	1e-09	-0.5%	i	?
CN1CCN(CCCNc2nc3ccccc3c3nc(-c4ccccc4)nn23)CC1	i	2.1e-08	0.9%	i	-4%[11.4 µM]
COc1ccc(C(=O)N/C(N)=N/c2nc3ccccc3o2)cc1	i	2.7e-09	.	i	.
Cc1nn(-c2ccccc2)c2sc(C(=O)N3CCc4ccccc4C3)cc12	i	6.2e-09	1.0%	i	?
Cn1c(N)c(C(=O)COC(=O)C2(c3ccc(F)cc3)CCCC2)c(=O)n(C)c1=O	i	3.7e-08	-0.5%	i	2%
O=S(=O)(c1ccc(Cl)s1)N1CCN(c2ncccn2)CC1	i	8.8e-09	3.0%	i	7%
CN(c1ccc(C(=O)NCc2ccccc2)cc1)S(C)(=O)=O	i	6.6e-09	-0.9%	i	-1%
Cc1ccc(-c2nn3c(C)nnc3c3ccccc23)cc1S(=O)(=O)NCc1ccco1	i	1e-09	-0.4%	i	.
O=C(O)CC[P+](c1ccccc1)(c1ccccc1)c1ccccc1	i	2.2e-09	-4.4%[11.5 µM]	i	?
CCn1nnc(NC(=O)c2ccc(-c3ccc(Cl)cc3)o2)n1	i	7e-09	-0.9%	i	-2%[11.4 µM]
O=C(O)c1ccc(NS(=O)(=O)c2ccsc2C(=O)O)cc1	.	.	-1.3%	.	11%
O=C1CC(NC23CC4CC(CC(C4)C2)C3)C(=O)N1c1ccc2c(c1)OCO2 (centres undefined)	i	3.1e-08	0.0%	i	-3%
N=c1ccccn1CC(O)COc1ccccc1 (centres undefined)	i	2.7e-08	-0.5%	i	4%
CCOCCN1CCN(c2c(C)c(C)nc3cc(-c4cc(OC)cc(OC)c4)nn23)CC1	i	2.4e-08	-0.7%	i	4%
Cc1oc(-c2ccccc2F)nc1CS(=O)(=O)CC(=O)NCCCN1CCc2ccccc2C1	.	.	0.7%	.	18%
O=C1c2ccccc2C(=O)N1CCc1nc2ccccc2c(=O)n1CCCn1ccnc1	.	.	1.7%	.	-4%
COc1ccc(/C(O)=C2/C(=O)C(=O)N(Cc3ccco3)C2c2cccs2)cc1 (centres undefined)	i	1e-09	.	i	.
O=c1cc(NCc2ccccc2)c2ccccc2o1	i	1.4e-08	-1.7%	i	-3%
O=C(CNS(=O)(=O)c1ccc(Br)s1)N1CCC(N2CCCCC2)CC1	i	1.1e-08	0.4%	i	0%
COc1cccc(C(=O)N2CCN(Cc3ccccn3)CC2)c1OC	i	2.9e-08	.	i	.
O=C(Nc1cccnc1)c1ccc(Br)s1	i	1e-09	-1.9%	i	-4%
CC(=O)Nc1ccc(S(=O)(=O)NCCC(=O)OCCN2C(=O)c3ccccc3C2=O)cc1	i	1.3e-09	2.0%	i	3%
COc1ccc(CCNC(=O)CSC2=Nc3ccccc3C3=NC(C(C)C)C(=O)N23)cc1OC (centres undefined)	i	1.2e-08	1.7%	i	-1%
CCC(C)(NC(=O)c1ccc(=O)[nH]c1)C(=O)NC1CCCC1 (centres undefined)	.	.	-3.3%	.	2%
CC1Cc2ccccc2N1C(=O)CSc1nc2cc3c(cc2cc1C#N)OCO3 (centres undefined)	i	6.9e-08	3.2%	i	19%
CCOC(=O)c1sc(NC(=O)c2cccnc2)nc1C	.	.	0.5%	.	0%
CCOC(=O)/C(C#N)=C1/C=CNC(=O)N1	.	.	14%	.	-4%
CCOc1ccc(C(F)(F)F)cc1NC(C)=O	i	1e-09	2.5%	i	-1%
CN=C(Nc1cc(C)nn1CCC#N)c1ccc(F)cc1	i	1e-09	-1.1%	i	7%
C=CCSc1nncn1/N=C/c1ccc(OC)cc1	i	4.9e-08	-0.2%	i	7%
CCOC(=O)Nc1ccc2c(c1)N(C(=O)CN1CCN(C)CC1)c1ccccc1S2	i	1.2e-08	-0.4%	i	1%[11.4 µM]
Cc1occc1-c1nnc(SCC(=O)Nc2ccccc2)n1C(C)c1ccccc1 (centres undefined)	i	3e-08	1.9%	i	7.9µM*
O=C(CSc1nc2ccccc2s1)NCCCN1CCOCC1	i	1.8e-08	-0.6%	i	2%
Cc1[nH]nc(N=CC2=C(O)CC(C)(C)CC2=O)c1-c1ccccc1	i	1.9e-08	1.5%	i	5%
CCOC(=O)C1CCN(c2c(NCc3ccc(C(=O)NCCC(C)C)cc3)c(=O)c2=O)CC1	i	1e-08	-2.2%	i	5%
COc1ccc(Cc2nnc(NC(=O)C3CCCO3)s2)cc1 (centres undefined)	i	4.9e-09	-0.2%	i	-1%
Cc1cccc(OCC(O)Cn2c(=N)n(CCN3CCOCC3)c3ccccc32)c1 (centres undefined)	i	4.8e-09	0.9%	i	?
C=CCNC(=O)c1cc([N+](=O)[O-])cc2c(=O)[nH]c(Nc3ccc(Cl)c(Cl)c3)nc12	.	.	2.2%	.	-2%
CCOC(=O)c1[nH]c(C)c(C(=O)N2CCOCC2)c1C	.	.	-0.7%	.	?
CCOc1ccc(C(=O)Nc2ccc(NC(=O)c3ccco3)c(Cl)c2)cc1Br	i	5.9e-09	2.4%	i	0%

Next section:
SMILES	A488 autofl	A647 autofl	AID923	Resorufin autofl	TSHR agonist
Cc1ccc(S(=O)(=O)N(CC(=O)O)Cc2ccccc2F)cc1	i	1.3e-08	-2.0%	i	2%
O=C(CCn1c(=O)oc2ccccc21)Nc1ccccc1	i	1e-09	-1.2%	i	-4%
COC(=O)c1ccc(-n2nnnc2SCc2nn[nH]n2)cc1	.	.	-0.1%	.	4%
Cc1ccc2cc(CN(CCCO)S(=O)(=O)c3cccc4nsnc34)c(=O)[nH]c2c1C	i	1.2e-09	0.6%	i	-3%
CCOc1cc(NC(=O)C2CCCCC2)c(OCC)cc1NC(=O)c1ccco1	i	3.1e-09	-1.2%	i	.
CC(=O)NCCNc1cc(-c2ccccc2C)ncn1	i	1e-09	-0.5%	i	6%
CC1(C)Cc2c(sc3nc4n(c(=N)c23)CCC4)CO1	i	2.2e-09	.	i	.
CC1(CCC(=O)OC2CCCCC2)OCCO1	i	4.4e-08	1.0%[11.5 µM]	i	2%[11.4 µM]
COc1ccc(OC)c(C2N(c3ccc(Cl)cc3)C(=O)C3CCCN32)c1 (centres undefined)	i	2.2e-09	-0.9%	i	4%
C=CCNS(=O)(=O)c1ccc2nsnc2c1	.	.	2.4%	.	3%
COCCOC(=O)C1=C(C)NC(SCC(=O)NC(C)(C)C)=C(C#N)C1c1ccco1 (centres undefined)	i	9.4e-09	.	i	.
O=C(CN(CCc1ccccc1)C(=O)Cn1nnc(-c2cccs2)n1)NCc1ccco1	i	1e-09	0.9%	i	?
Cc1ccc(-n2ncc3c(=O)n(CC(=O)N4CCCc5ccccc54)cnc32)cc1C	i	1e-09	1.0%	i	27%
CN(C)c1ccc(NC(=O)Cn2ncn3c(cc4ccccc43)c2=O)cc1	i	4e-08	-1.8%	i	-14%
CCCCOC(=O)Cn1c(=O)oc2ccc(C)cc21	.	.	2.8%	.	-4%
O=S(c1ccsc1)c1ccsc1	i	1.9e-08	-1.2%	i	12%
CCOC(=O)c1ccc2nc(NC(=O)C(C)C)sc2c1	.	.	4.8%	.	4%
Cc1ccc2c(c1)c1c3n2CCN[C@H]3CCC1	i	7.7e-09	-1.9%	i	1%
COc1cccc(C2(O)CCN(C(=O)C3CC3)CC2)c1	i	1e-09	0.4%	i	-1%
FC(F)(F)c1ccccc1-c1nccc(-n2ccnc2)n1	i	2.5e-08	5.1%	i	12%
COc1ccc(OC)c(NC(=O)C2CCCN(S(=O)(=O)c3c(C)noc3C)C2)c1 (centres undefined)	i	8.4e-09	0.7%	i	-5%
Nc1ccccc1S(=O)(=O)O	.	.	-0.1%	.	2%
c1ccc(C(NCCNC(c2ccccc2)c2ccccc2)c2ccccc2)cc1	.	.	-0.8%	.	?
CC12C(=O)N(c3ccccn3)C(=O)C1C1C=CC2C1 (centres undefined)	.	.	0.2%	.	6%
COC(=O)c1ccc(CSc2nc3c(cnn3-c3ccc(C)cc3)c(=O)[nH]2)o1	i	2.2e-08	-0.2%	i	.
CCOC(=O)N1CCN(S(=O)(=O)c2ccc3[nH]c(=O)sc3c2)CC1	i	4.6e-08	-0.2%	i	5%
CCS(=O)(=O)N1CCC(C(=O)NCc2ccco2)CC1	i	2e-08	-1.0%	i	1%[11.4 µM]

Bioassay records: PubChem, National Center for Advancing Translational Sciences (NCATS)
